# Rango-impB inh = qHTS Assay for Inhibitors of Rango (Ran-regulated importin-beta cargo) - Importin beta complex formation; Rango CFP/YFP FRET sensor + importin beta, 45 min; Importin subunit beta-1 (Homo sapiens), Q14974; 340,000 compounds, 0.031% hits; AID 540263, 2011; Potency, µM (titrated, usually from 92.2 µM), for inactives: at the highest dose inhibition of complex formation; active = rising FRET ratio curve, often small or poorly fitted; inconclusive = mostly compound fluorescence or quenching in the first reads; inactive = flat curves in all reads;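 further: potency means the concentration at half of the fitted maximal effect; 0% = DMSO wells and 100% = buffer wells lacking importin beta; nearly all actives have a fitted effect of over 15% in size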
# Target sequence (Q14974 whole entry, looked up): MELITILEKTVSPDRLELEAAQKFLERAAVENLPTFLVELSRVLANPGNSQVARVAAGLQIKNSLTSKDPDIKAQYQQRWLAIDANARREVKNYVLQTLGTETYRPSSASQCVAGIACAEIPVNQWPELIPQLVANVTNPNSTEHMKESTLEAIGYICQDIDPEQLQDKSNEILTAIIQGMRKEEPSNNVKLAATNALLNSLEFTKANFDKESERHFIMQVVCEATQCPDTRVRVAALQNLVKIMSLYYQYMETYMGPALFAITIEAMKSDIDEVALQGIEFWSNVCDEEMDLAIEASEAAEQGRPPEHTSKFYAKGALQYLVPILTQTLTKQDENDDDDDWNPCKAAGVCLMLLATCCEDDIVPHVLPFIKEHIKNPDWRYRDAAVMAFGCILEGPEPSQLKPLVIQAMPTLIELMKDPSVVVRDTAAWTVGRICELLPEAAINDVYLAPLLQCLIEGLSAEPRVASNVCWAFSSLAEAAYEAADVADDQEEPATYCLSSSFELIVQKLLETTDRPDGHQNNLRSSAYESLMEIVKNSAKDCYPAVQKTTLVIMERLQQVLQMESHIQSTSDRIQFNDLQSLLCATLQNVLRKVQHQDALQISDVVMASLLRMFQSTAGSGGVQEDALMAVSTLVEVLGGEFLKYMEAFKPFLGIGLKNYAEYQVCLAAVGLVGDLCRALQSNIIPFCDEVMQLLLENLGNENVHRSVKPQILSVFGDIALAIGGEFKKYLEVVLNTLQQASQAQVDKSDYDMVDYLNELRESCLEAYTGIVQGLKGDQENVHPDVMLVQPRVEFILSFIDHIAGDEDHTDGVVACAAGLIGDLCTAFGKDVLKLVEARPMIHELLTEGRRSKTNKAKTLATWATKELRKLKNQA
#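 Inhibition scored from the CFP 486 nm/YFP 530 nm FRET ratio 45 min after adding 0.125 microM importin beta to 50 nM Rango biosensor preincubated 5 min with compound (room temperature, PBS with DTT, Tween-20, BSA). No-importin wells as positive control.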
# GLA inh pH 4.5 = qHTS Assay for Inhibitors of Human alpha-Galactosidase at pH 4.5 | purified enzyme, 4-MU-alpha-Gal fluorescence, pH 4.5 | Alpha-galactosidase A (Homo sapiens), P06280 | activity change, negative = inhibition, % at 105 µM | 230,000 tested, under 10 active | AID 1467, 2008; inconclusive = small, poorly fitted or top-dose-only inhibition, or a rising curve; inactive = flat fitted curve, though single readings scatter; no compound was filed as active;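 further: 0% = full activity with enzyme and -100% = basal without enzyme; dose as in the result columns while the protocol names 77 µM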
# miR-21 FLuc = qHTS Assay for Modulators of miRNAs and/orActivators of miR-21 | HeLa miR-21 FLuc reporter, luciferase, 48 h | Potency, µM (titrated, usually from 38.3 µM), for the others: top-dose reporter change, positive = more light | 340,000 tested, under 10 active; active = well fitted rising curve with a large enough effect; inconclusive = small, poorly fitted or top-dose-only effect; inactive = no such curve, though single readings can be large or run the other way;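 further: % of control where 0% means no effect; miR-21 action dims this reporter so a rising signal means less miR-21 action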
#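 Luminescence from a firefly luciferase reporter carrying a miR-21 binding site downstream, stably expressed under a CMV promoter in HeLa cells that make miR-21 endogenously, reports miRNA modulation after 48 h compound exposure up to approximately 40uM final.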
# Rango release inh = qHTS Assay for Inhibitors of RanGTP induced Rango (Ran-regulated importin-beta cargo) - Importin beta complex dissociation; Biochemical FRET Rango-importin beta, RanGTP-induced dissociation; AID 540253, 2011; Potency, µM (series often up to 46.1 µM), for the others: at the highest dose activity change, negative = inhibition; 340,000 compounds, 0.071% hits; active means falling FRET ratio curve, often poorly fitted, with flat reads before Ran was added; inconclusive means other falling curves, or compound fluorescence or quenching; inactive means flat or rising ratio curve;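 further: potency means the concentration at half of the fitted maximal effect; % of control where 0% means no effect; nearly all actives have a fitted effect of over 45% in size; -100% = wells without RanGTP and RCC1; the record marks most hits as doubtful in a second field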
#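 Recombinant Rango FRET biosensor (EYFP–snurportin 1 IBB–cerulean CFP10) at 0.1 uM premixed with 0.25 uM importin beta in PBS, 1 mM DTT, 0.02% Tween-20, 0.1% BSA. Compound added 5 min; RanGTP-RCC1 (0.6 uM Ran, 2 mM GTP, 0.2 uM RCC1) then triggers release, read at 45 min.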
# An asterisk follows results filed as active; ? = inconclusive; . = not tested or not shown; & = joins results of further samples. Some of the compounds tested; the hit share may differ from the screen's.
# Preview:
Rango-impB inh	miR-21 FLuc	Rango release inh	GLA inh pH 4.5	structure
-2.6%	5%	1%	6	COc1cccc(C(C(=O)Nc2ccc(F)cc2)N(C(=O)Cn2nnc3ccccc32)C2CC2)c1 (stereo not given)
2.3%	-3%	4%	-4	COc1cccc(/C=N/NC(=O)C[n+]2ccccc2)c1O
4.4%	-6%	-4%	-3	O=C(CCC(=O)c1ccc(Oc2ccccc2)cc1)Nc1ccc(Cl)cc1Cl

# The list itself, from the start:
Rango-impB inh	miR-21 FLuc	Rango release inh	GLA inh pH 4.5	structure
-2.6%	5%	1%	6	COc1cccc(C(C(=O)Nc2ccc(F)cc2)N(C(=O)Cn2nnc3ccccc32)C2CC2)c1 (stereo not given)
2.3%	-3%	4%	-4	COc1cccc(/C=N/NC(=O)C[n+]2ccccc2)c1O
4.4%	-6%	-4%	-3	O=C(CCC(=O)c1ccc(Oc2ccccc2)cc1)Nc1ccc(Cl)cc1Cl
-3.0%	-16%	1%	6	CCNC(=O)c1cc2ccccc2o1
-1.5%	8%	2%	.	COc1ccccc1CCNC(=O)C(=O)NCC1OCCCN1S(=O)(=O)c1cc(C)ccc1C (stereo not given)
-3.2%	7%	0%	4	CCCN1CCC(=O)N(CCSc2ccc(NC(C)=O)cc2)CC1
-1.5%	0%	11%	0	COc1ccccc1N1C(=O)CCC1(C#N)c1ccc(Br)cc1 (stereo not given)
-1.6%	-9%	21%	-8	O=S(=O)(c1cccs1)N1CN(Cc2ccc(F)cc2)c2nc3ccccc3nc21
-1.1%	6%	2%	-1	COc1ccc(-c2nc3c([nH]2)c(=O)n(C)c(=O)n3C)c(OC)c1
-2.7%	-4%	0%	.	Cc1ccc(C)c(S(=O)(=O)N2CCC3(CC2)OCCO3)c1
2.2%	.	-8%	.	Cc1ccc(C(=O)NCC(=O)NCC(c2cccs2)N2CCOCC2)cc1 (stereo not given)
-0.1%	.	-9%	.	Cc1cc(C)n2nc(C(=O)OCC(=O)NCc3ccc(Cl)cc3)nc2n1
2.8%	.	8%	.	O=C(CNS(=O)(=O)c1cccc(F)c1)OCC(=O)N1CCCC1=O
1.2%	-84%	-12%	-1	COc1ccc(Cl)c2c1[nH]c1nc(SCc3ccccn3)nnc12
-3.7%	-15%	-16%	-10	COc1ccc(C(=O)CN2CC(C)SC2=Nc2ccc(Cl)cc2)cc1 (stereo not given)
-0.9%	4%	-8%	-4	CC(=O)Nc1ccc(S(=O)(=O)NC2=NCN(C)CN2)cc1
-2.6%	-2%	1%	0	CCOC(=O)CSc1nnc(CNC(=O)c2cccs2)n1-c1cc(C)ccc1C
-3.1%	.	-1%	.	O=C(OCC(=O)N1CCc2ccccc21)c1ccccc1[N+](=O)[O-]
-0.7%	-7%	-2%	-5	COc1cc(/C=N/NC(N)=O)ccc1OCC(=O)Nc1cc(C)c(C)cc1Br
-5.4%	.	3%	.	Cc1ccc(NC(=O)CCNC(=O)c2ccc(Br)cc2)cc1S(=O)(=O)N1CCOCC1
-1.9%	-6%	-9%	7	COC(=O)c1sc2ccccc2c1NC(=O)c1coc2ccccc2c1=O
-1.6%	.	-12%	.	O=C(/C=C/c1ccccc1)Nc1ccc(S(=O)(=O)N2CCOCC2)cc1
6.1%	.	1%	.	COc1ccccc1NC(=O)COC(=O)CNC(=O)C1CCCCC1
-1.2%	.	24%	.	Cn1c(C(=O)NN)cc2cc(OCc3ccccc3)ccc21
1.6%	2%	6%	.	O=S(=O)(c1ccc(Cl)cc1)c1nc(-c2ccco2)oc1N1CCCCC1
0.9%	.	22%	.	O=C(COC(=O)c1ccc(Br)o1)Nc1ccc2c(c1)OCCO2
-0.1%	12%	?	7	O=C(CSc1nc2ccc([N+](=O)[O-])cc2s1)NC1CCS(=O)(=O)C1 (stereo not given)
3.9%	-27%	5%	-3	CS(=O)(=O)c1ccccc1COC(=O)Nc1ccc(Cl)cc1
0.3%	-13%	2%	-6	Nc1nonc1-c1noc(CCCCCN2C(=O)c3ccccc3C2=O)n1
-0.6%	.	9%	.	CCOc1ccc(CCNC(=O)CN2C(=O)NC3(CCCCC3)C2=O)cc1OCC
-0.7%	6%	0%	3	CCCC(=O)c1cc2c(cc1NC(=O)c1cccs1)OCCO2
-1.4%	-6%	0%	.	O=C1CCC([N+](=O)[O-])C(c2ccccc2Br)N1 (stereo not given)
-3.0%	-8%	-20%	-3	O=C(CN1CCN(S(=O)(=O)c2ccc(Br)cc2)CC1)N/N=C/c1cccs1
0.1%	-6%	28%	-9	CN(C)S(=O)(=O)c1cccc(NC(=O)COC(=O)CCSc2ccc(Cl)cc2)c1
-0.4%	2%	15%	.	COc1ccc(-n2nc(C(=O)NCC(=O)N3CCN(Cc4ccccc4)CC3)c3ccccc3c2=O)cc1OC
0.4%	-4%	7%	.	CCN1CCN(CCCNC(=O)c2ccccc2NC(=O)C2=C(C)OCCS2)CC1
?	.	-5%	.	CCOc1ccccc1OCC(=O)Nc1ccc(OC)c(S(=O)(=O)N2CCCCC2)c1
4.2%	-8%	?	.	Cc1nc(C(C)NC(=O)c2cc(COc3ccc(F)c(F)c3)on2)cs1 (stereo not given)
-0.5%	-3%	0%	-4	O=C(CS(=O)(=O)c1ccccc1)Nc1nc(-c2ccccc2)cs1
2.7%	1%	-3%	1	CCOc1ccccc1OCCCCCc1c(C)n[nH]c1C
-1.1%	0%	29%	12	COc1ccc(Cl)cc1NC(=O)C(C)Sc1n[nH]c(N)n1 (stereo not given)
6.1%	-6%	2%	.	CCn1c(=O)c(C(=O)Nc2ncccc2O)c(O)c2ccccc21
3.7%	-9%	19%	6	COC(=O)c1c(NC(=O)c2cccs2)sc2c1CCC(C)C2 (stereo not given)
0.2%	-37%	8%	-5	Cc1ccc(NC(=O)CCOc2ccccc2C)cc1F
0.0%	-2%	16%	-3	COC(=O)C1=C(C)N(Cc2ccc(OC)cc2)C(=O)C1
?	-17%	-1%	7	COc1cccc(OC(=O)N2CCOCC2)c1
2.8%	.	20%	.	Cc1ccc(S(=O)(=O)N2CCN(CC(=O)NC(C)c3ccccc3)CC2)cc1 (stereo not given)
-5.0%	2%	-4%	.	COc1cccc(NC(=O)NNC(=O)CCc2ccc(O)c(O)c2)c1
0.6%	.	12%	.	CCCCOCCCNC(=O)/C=C/c1ccccc1Cl
-1.6%	-3%	-1%	0	CCc1ccccc1NC(=S)N(CCc1ccncc1)C(C)C

# Further structures follow:
Rango-impB inh	miR-21 FLuc	Rango release inh	GLA inh pH 4.5	structure
6.9%	-3%	1%	8	O=C(O)C1CCC(=O)N1C(=O)OCc1ccccc1 (stereo not given)
-0.9%	-3%	-6%	.	COc1ccc(CCC(=O)NC(C)C2CCCO2)cc1 (stereo not given)
-0.4%	-4%	?	.	CCCCc1nnc(NC(=O)CSCc2cc(=O)n3c(C)csc3n2)s1
0.1%	-3%	?	-1	COc1ccc(S(=O)(=O)Nc2nncs2)cc1
-1.2%	-2%	11%	0	O=C(NCc1ccccc1)C1C2C=CC3(CN(Cc4cccnc4)C(=O)C13)O2 (stereo not given)
-0.5%	.	-2%	.	Cc1cccc(C(=O)OCC(=O)N(C)C(c2ccccc2)c2ccccc2)c1[N+](=O)[O-]
-5.6%	-1%	-7%	0	COc1ccc(/C=C(\NC(=O)c2ccc([N+](=O)[O-])cc2)C(=O)N2CCOCC2)cc1
1.5%	8%	-10%	6	Cc1nn(Cc2nnc(SCC(=O)Nc3ccc(Cl)cc3)n2C)c(C)c1[N+](=O)[O-]
-0.9%	5%	0%	-1	CCc1c(C(=O)Nc2ccncc2)csc1C
7.3%	-3%	19%	5	CCOC(=O)N1CCC(NC(=O)c2ccc(NC(=O)C3CCCO3)cc2)CC1 (stereo not given)
-1.8%	-13%	-10%	-13	O=C(Nc1nnc(C2CC2)s1)C1Cc2ccccc2CN1C(=O)c1ccco1 (stereo not given)
0.2%	-1%	-8%	.	COc1ccc(CNC(=O)[C@H](C)NC(=O)C2CCN(C(=O)[C@@H](N)Cc3ccccc3)CC2)cc1
3.5%	0%	0%	-1	O=C(COC(=O)c1ccc(Br)o1)NC1CCCCC1
1.7%	-3%	-6%	-7	CCOC(=O)N1CCC(NC(=O)c2ccc(CO)c(C(=O)NC3CCN(C(=O)OCC)CC3)c2)CC1
0.0%	-44%	-13%	-5	COc1cccc(OCc2nc3ccccc3c(=O)n2N)c1
-1.0%	-3%	-15%	4	CCn1ncc(/C=N/NS(=O)(=O)c2ccc(Cl)cc2)c1C
?	0%	-2%	4	CCCCn1nnnc1NCc1cc(OC)c(OC)cc1OC
-1.0%	-26%	-14%	.	O=C(NNC(=O)C1CC=CCC1)c1ccccc1O (stereo not given)
1.5%	0%	1%	.	Oc1c(Br)cc(Br)cc1CNc1nccs1
-2.1%	-6%	21%	4	CCSC(=Nc1ccccc1)Nc1ccccc1
-0.9%	-1%	8%	.	COc1ccc(CCC(C)NCc2ccccc2OC)cc1 (stereo not given)
-2.7%	0%	-29%	-5	Cc1cc(C(=O)N2CCCC(CNS(=O)(=O)c3cccs3)C2)nn1C (stereo not given)
1.5%	.	8%	.	COc1ccccc1OCC(=O)N1CCC2(CC1)CC(=O)c1ccccc1O2
-1.0%	0%	13%	.	COc1ccc(OC)c2c1cc(C(=O)N[C@H](C(=O)N1CCC[C@H]1C(=O)O)C(C)C)n2C
-1.6%	0%	0%	.	CC(C)c1ccc(NC2CCCN(C(=O)CCn3cnnn3)C2)cc1 (stereo not given)
1.2%	-3%	28%	-6	Cc1nn(-c2ccc(F)cc2)c(Cl)c1/C=C/C(=O)OCC(=O)Nc1ccc(F)cc1F
0.6%	-7%	-5%	.	O=C(CN1C(=O)S/C(=C\c2ccc(F)cc2)C1=O)NC1C=CS(=O)(=O)C1 (stereo not given)
3.2%	10%	2%	2	Cc1ccc(NC(=O)COc2cccnc2[N+](=O)[O-])cc1S(=O)(=O)N1CCCCC1
-0.9%	?	7%	.	Cc1ccc(NC(=O)C2CCCN(S(=O)(=O)c3cccc4cccnc34)C2)cc1 (stereo not given)
-2.1%	-14%	9%	1	Cc1ccccc1C(=O)c1ccc2c(c1)n(C)c(=O)n2C
-2.9%	0%	-3%	.	CCOc1cc(CNn2cnnc2)cc(Cl)c1OCC(=O)NC(C)(C)C
?	.	9%	.	O=C(NCC(=O)N1CC=C(c2ccccc2)CC1)c1ccc(OC(F)F)cc1
?	-2%	5%	4	CC(=O)Cc1nsc(NC(=O)c2c(-c3ccccc3Cl)noc2C)n1
-0.4%	-41%	15%	6	COc1cccc(C(=O)Nc2ccc(NC(C)=O)cc2)c1
2.2%	-2%	4%	1	CS(=O)(=O)ON=C1CCN(S(=O)(=O)c2ccccc2)CC1
-11%	-8%	1%	.	Cc1cc(S(=O)(=O)NC2CC(C)(C)NC(C)(C)C2)c(Cl)cc1Cl
-2.1%	-4%	0%	4	COc1ccc(/C=C/C(=O)NCCCc2ccccc2)cc1OC
-2.0%	-5%	11%	7	COc1ccc(C(C)=O)c(OC(=O)c2ccco2)c1
1.0%	21%	-9%	-6	CN1CCN(c2ccc(CNS(=O)(=O)Cc3cccc(C(F)(F)F)c3)cc2)CC1
3.2%	-3%	16%	4&6	CN1C(CC(=O)c2ccccc2)CCCC1CC(O)c1ccccc1 (stereo not given)
-0.4%	-20%	-1%	4	CC1CCCCN1C(=S)Nc1ccc2nc3n(c(=O)c2c1)CCCCC3 (stereo not given)

# Shown as tab-separated lines: two of the compounds above
compound	Rango-impB inh	miR-21 FLuc	Rango release inh	GLA inh pH 4.5
COc1ccc(C(C)=O)c(OC(=O)c2ccco2)c1	-2.0%	-5%	11%	7
CN1CCN(c2ccc(CNS(=O)(=O)Cc3cccc(C(F)(F)F)c3)cc2)CC1	1.0%	21%	-9%	-6

# Source: PubChem (National Center for Advancing Translational Sciences (NCATS))
